Screening data from PubChem BioAssay.
FGF22 binding – binders of recombinant human FGF22 by thermal shift; Q9HCT0; SYPRO orange fluorescence; percent of sucrose octasulfate shift, DMSO zero; calls only at 9.99 µM; actives 1.5% (n = 340,000); AID 651658;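 active means melting point raised past a set limit in the mean and every replicate; three in four hits are not shown here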
Target sequence (Q9HCT0 whole entry, looked up): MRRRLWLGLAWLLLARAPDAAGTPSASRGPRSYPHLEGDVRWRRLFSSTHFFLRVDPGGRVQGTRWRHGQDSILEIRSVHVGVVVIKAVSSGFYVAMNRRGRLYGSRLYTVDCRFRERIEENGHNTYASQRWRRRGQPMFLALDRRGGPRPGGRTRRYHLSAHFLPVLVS
HNF4A DNA FP – change in binding of human HNF4 alpha to DNA; P41235; HNF4a-FITC DNA binding, fluorescence polarization, 1 h; activity change, % at 10 µM; actives 0.3% (n = 360,000); in the data active means activity change above about 30%, passing the limit was not always enough;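 further: controls were the assay level and a saturating level of protein; the project sought stronger binding though the title names inhibitors; some compounds called inactive have numbers as strong as hits; positive values seem to mean higher polarization but the record does not say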
Target sequence (P41235 whole entry, looked up): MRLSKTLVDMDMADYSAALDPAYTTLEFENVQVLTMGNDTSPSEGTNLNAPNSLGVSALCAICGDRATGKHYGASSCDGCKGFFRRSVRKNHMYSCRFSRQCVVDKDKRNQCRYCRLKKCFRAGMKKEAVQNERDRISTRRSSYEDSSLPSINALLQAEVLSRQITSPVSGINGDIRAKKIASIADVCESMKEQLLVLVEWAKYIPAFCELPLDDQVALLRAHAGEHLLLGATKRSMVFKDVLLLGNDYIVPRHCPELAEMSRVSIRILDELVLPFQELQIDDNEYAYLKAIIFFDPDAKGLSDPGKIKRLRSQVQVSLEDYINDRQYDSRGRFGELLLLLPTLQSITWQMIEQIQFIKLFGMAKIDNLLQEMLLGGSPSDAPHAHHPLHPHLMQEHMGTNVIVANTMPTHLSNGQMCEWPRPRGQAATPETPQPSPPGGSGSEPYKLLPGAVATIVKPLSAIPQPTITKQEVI
* hit, by the source's call; i = inactive; nt = not tested or not shown. Some of the compounds tested (hit frequency here may not be typical).

A first look, 4 compounds:
1. COC(=O)C1=C(c2ccc(OCc3ccccc3)cc2)C[C@@H]2CC[C@H]1N2C(=O)NCc1ccc(F)cc1
2. c1ccc(N2[C@@H]3CC[C@H]2c2ccncc2C3)cc1
3. C[C@H]1COc2cc(N3CCN(C)CC3)ccc2S(=O)(=O)N1
4. COc1ccc(C(SCC(NC(=O)OCc2ccccc2)C(=O)O)c2ccc(OC)cc2)cc1 (stereo not drawn)

Screen / compound no. | 1 | 2 | 3 | 4
FGF22 binding | nt | i | i | i
HNF4A DNA FP | -8.0 | 17 | -1.7 | -2.1

This part in full, previewed entries included:
1. COC(=O)C1=C(c2ccc(OCc3ccccc3)cc2)C[C@@H]2CC[C@H]1N2C(=O)NCc1ccc(F)cc1
2. c1ccc(N2[C@@H]3CC[C@H]2c2ccncc2C3)cc1
3. C[C@H]1COc2cc(N3CCN(C)CC3)ccc2S(=O)(=O)N1
4. COc1ccc(C(SCC(NC(=O)OCc2ccccc2)C(=O)O)c2ccc(OC)cc2)cc1 (stereo not drawn)
5. c1ccc2[nH]c(CCN3CCCCC3)nc2c1
6. COc1ccc(-n2nnnc2C(CCSC)N2CCC(n3c(=O)[nH]c4ccccc43)CC2)cc1 (stereo not drawn)

Screen / compound no. | 1 | 2 | 3 | 4 | 5 | 6
FGF22 binding | nt | i | i | i | i | i
HNF4A DNA FP | -8.0 | 17 | -1.7 | -2.1 | -1.3 | -1.8

Record cards, as listed above. Screens in order: FGF22 binding, HNF4A DNA FP
Results for `C[C@H]1COc2cc(N3CCN(C)CC3)ccc2S(=O)(=O)N1` = i, -1.7
Results for `c1ccc(N2[C@@H]3CC[C@H]2c2ccncc2C3)cc1` = i, 17

The list continues.
7. CCOC(=O)[C@]12Cc3c(cc(OC)c(OC)c3OC)[C@H]1N(C(C)C)C(=O)c1cc(OC)ccc12
8. CCOC(=O)[C@]12Cc3ccccc3[C@H]1N(C1CCCCC1)C(=O)c1cc(OC)ccc12
9. Cc1cccc(C)c1-n1nnnc1C(C1CC1)N1CCC(n2c(=O)[nH]c3ccccc32)CC1 (stereo not drawn)
10. O=c1[nH]c2ccccc2n1C1CCN(C(CCc2ccccc2)c2nnnn2C2CCCCC2)CC1 (stereo not drawn)
11. CCCCCN1C(=O)c2cc(OC)ccc2[C@@]2(C(=O)OCC)Cc3cc(Cl)ccc3[C@@H]12
12. CCOC(=O)[C@]12Cc3cc(Cl)ccc3[C@H]1N(C1CCCCC1)C(=O)c1cc(OC)ccc12

Screen / compound no. | 7 | 8 | 9 | 10 | 11 | 12
FGF22 binding | i | i | i | i | i | i
HNF4A DNA FP | 4.4 | 4.8 | 1.2 | 1.7 | 1.6 | -2.1

13. CS(=O)(=O)c1ccc(C2=C(CNC(=O)c3ccncc3)[C@H]3CC[C@@H](C2)N3CCOc2ccccc2)cc1
14. NC(Cc1ccc(F)cc1)c1csc(Nc2cnccn2)n1 (stereo not drawn)
15. S=C(NCCc1ccccc1)N1Cc2cc(N3CCCCC3)ccc2-n2nncc2C1
16. Fc1ccc(N2Cc3ccccc3-n3nncc3C2)cc1
17. COc1ccc(OC(=O)N(C)C[C@@H]2OCc3cnnn3CCCC(=O)N([C@H](C)CO)C[C@H]2C)cc1
18. Cc1ccc(OC(=O)N(C)C[C@@H]2OCc3cnnn3CCCC(=O)N([C@H](C)CO)C[C@@H]2C)cc1

Screen / compound no. | 13 | 14 | 15 | 16 | 17 | 18
FGF22 binding | i | i | i | i | i | i
HNF4A DNA FP | 0.7 | 0.5 | 3.0 | -1.5 | 1.0 | -1.4

Some of these compounds in order of number of heavy atoms, highest first.
13. CS(=O)(=O)c1ccc(C2=C(CNC(=O)c3ccncc3)[C@H]3CC[C@@H](C2)N3CCOc2ccccc2)cc1
17. COc1ccc(OC(=O)N(C)C[C@@H]2OCc3cnnn3CCCC(=O)N([C@H](C)CO)C[C@H]2C)cc1
18. Cc1ccc(OC(=O)N(C)C[C@@H]2OCc3cnnn3CCCC(=O)N([C@H](C)CO)C[C@@H]2C)cc1
15. S=C(NCCc1ccccc1)N1Cc2cc(N3CCCCC3)ccc2-n2nncc2C1
14. NC(Cc1ccc(F)cc1)c1csc(Nc2cnccn2)n1 (stereo not drawn)

Screen / compound no. | 13 | 17 | 18 | 15 | 14
FGF22 binding | i | i | i | i | i
HNF4A DNA FP | 0.7 | 1.0 | -1.4 | 3.0 | 0.5

More compounds:
19. COc1ccc(C(=O)C2CCCN(CC3CCCCC3)C2)cc1OC (stereo not drawn)
20. CCOC(=O)[C@]12Cc3c(cc(OC)c(OC)c3OC)[C@H]1N(C)C(=O)c1cc(OC)ccc12
21. CCOC(=O)[C@]12Cc3cc4ccccc4cc3[C@H]1N(Cc1ccccc1)C(=O)c1ccccc12
22. N#C/C(=C\c1cccc(O)c1)C(=O)O
23. Cc1nc2ccccc2c(=O)n1-c1nccs1
24. Cc1ccccc1OP(=O)(Oc1ccccc1C)N1CCOCC1

Screen / compound no. | 19 | 20 | 21 | 22 | 23 | 24
FGF22 binding | nt | i | i | i | i | i
HNF4A DNA FP | -0.3 | 8.6 | 2.5 | -0.9 | 7.5 | 2.3

Other compounds
Order of values – FGF22 binding	HNF4A DNA FP
[25] O=c1c2ccccc2[nH]c(=S)n1-c1cccc(C(F)(F)F)c1
  i	-5.7
[26] CO[C@H]1C=CCCC=CC(=O)O[C@H]([C@H](C)C(=O)CCCC2CC(=O)NC(=O)C2)C(C)=C[C@@H](C)[C@@H]1O
  i	-2.3
[27] CCCCn1nnnc1C(CC)N1CCC2(CC1)C(=O)NCN2c1ccccc1 (stereo not drawn)
  i	5.3
[28] COC(=O)[C@@]1(Sc2ccc(C)cc2)CC(=O)N(P(=O)(OC)OC)[C@@H]1c1ccccc1
  i	0.0
[29] CN(C)C1CCc2[nH]c3c(F)cc(F)cc3c2C1 (stereo not drawn)
  i	-0.5
[30] Cc1cc(Br)cn2c(CC(=O)N3CCCCC3)c(-c3ccc(F)cc3)nc12
  i	-4.3
[31] CCOC(=O)[C@]12Cc3cc(C)ccc3[C@H]1N(Cc1ccccc1)C(=O)c1cc(OC)ccc12
  i	-1.6
[32] CCOC(=O)[C@]12Cc3cc(Cl)ccc3[C@H]1N(C)C(=O)c1cc(OC)ccc12
  i	1.6
[33] O=S(=O)(c1cc(Cl)cc(Cl)c1)N1Cc2cc(-c3cccc(F)c3)ccc2-n2nncc2C1
  i	-0.4
[34] C[C@H](CO)N1C[C@H](C)[C@@H](CN(C)C(=O)Oc2ccc3ccccc3c2)OCc2cn(nn2)CCCC1=O
  i	0.2
[35] CS(=O)(=O)c1ccc(C2=C(CNC(=O)c3nccs3)[C@H]3CC[C@@H](C2)N3Cc2ccco2)cc1
  i	-3.7
[36] Cc1ccc(OC(=O)N(C)C[C@@H]2OCc3cnnn3CCCC(=O)N([C@@H](C)CO)C[C@@H]2C)cc1
  i	1.6
[37] Cc1ncoc1C(=O)NCC1=C(c2ccc3ccccc3c2)C[C@@H]2CC[C@H]1N2Cc1ccco1
  i	5.4
[38] O=c1[nH]c2ccccc2n1C1CCN(C(c2ccccc2OC(F)(F)F)c2nnnn2-c2ccc3c(c2)OCCO3)CC1 (stereo not drawn)
  i	2.9
[39] CC(Cc1ccc(O)cc1)NCC(O)c1ccc(O)c(O)c1 (stereo not drawn)
  i	-25
[40] COC(=O)C12CCc3cc(OC)ccc3C1=CC(=O)C2 (stereo not drawn)
  i	0.1
[41] CS(=O)(=O)c1ccc(C2=C(CNC(=O)c3ccc([N+](=O)[O-])cc3)[C@H]3CC[C@@H](C2)N3CCOc2ccccc2)cc1
  i	-2.3
[42] CCOC(=O)c1cccc(C2=C(CNC(=O)c3ccc([N+](=O)[O-])cc3)[C@H]3CC[C@@H](C2)N3Cc2ccccc2)c1
  i	-3.7
[43] CCOC(=O)[C@]12Cc3cc(Cl)ccc3[C@H]1N(Cc1ccccc1)C(=O)c1cc(OC)ccc12
  i	-1.6
[44] O=C1NCN(c2ccccc2)C12CCN(C(c1cccs1)c1nnnn1C1CCCCC1)CC2 (stereo not drawn)
  i	3.0
[45] COc1ccc(-c2ccc3c(c2)CN(C(=S)NCCc2ccccc2)Cc2cnnn2-3)cc1
  i	2.5
[46] COC(=O)C1=C(c2ccc(OCc3ccccc3)cc2)C[C@@H]2CC[C@H]1N2C
  i	0.8
[47] O=C1NCN(c2ccccc2)C12CCN(C(c1cc3ccccc3o1)c1nnnn1Cc1ccccc1)CC2 (stereo not drawn)
  i	1.0
[48] O=C1NCN(c2ccccc2)C12CCN(C(c1cccc3ccccc13)c1nnnn1-c1ccc3c(c1)OCCO3)CC2 (stereo not drawn)
  i	-0.3
[49] O=C(CCc1ccccc1)N1Cc2cc(-c3ccccc3)ccc2-n2nncc2C1
  i	0.4
